# Assay outcomes as filed in PubChem BioAssay.
# RE007 growth inh – less growth of the S. pombe RE007 Vpr strain. S. pombe RE007 Vpr strain, BacTiter-Glo ATP luminescence, 24 h; control for the full effect not named in the record. Potency, µM (titrated, usually from 92.2 µM), for the others: at the top dose activity change, negative = less growth. 0.21% of 360,000 active; active = well fitted falling curve with a large enough effect; inconclusive = small, poorly fitted or top-dose-only effect; inactive = no such curve, though single readings can be large or run the other way;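 further: on the % scale 0 is the no-effect control and ±100 the full control effect; nearly all actives have a fitted effect of over 50% in size; the assay follows cell death caused by Vpr and the record does not say whether a fall means rescue or toxicity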
#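 Fission yeast strain RE007, carrying one chromosomally integrated HIV-1 vpr copy, was seeded at OD 0.01 in PMG+AL medium with 23 nL pinned compound. After 24 h at 30 °C and 99% humidity, viability was read by BacTiter-Glo luminescence.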
# StopGo reporter – FMDV 2A StopGo reporter, luciferase signal | Potency, µM (doses to about 57.9 µM), without a hit: top-dose signal change, negative = less light | human cells with a luciferase reporter of 2A StopGo recoding; control for the full effect not named in the record | 1.2% of 410,000 active; active = well fitted falling curve with a large enough effect; inconclusive = small, poorly fitted or top-dose-only effect; inactive = no such curve, though single readings can be large or run the other way; tested in HEK293T cells; further: on the % scale 0 is the no-effect control and ±100 the full control effect; nearly all actives have a fitted effect of over 45% in size; luciferase light after 4 h
# SARS PLP yeast – SARS-CoV PLP inhibition in yeast; S. cerevisiae expressing SARS-CoV PLpro, growth rescue; control for the full effect not named in the record; Potency, µM (highest dose often 32.9 µM), inactives show top-dose activity, positive = growth rescue; 0.19% of 330,000 active; AID 485353; active means well fitted rising curve with a large enough effect; inconclusive means small, poorly fitted or top-dose-only effect; inactive means no such curve, though single readings can be large or run the other way; further: 0% is about no effect; nearly all actives have a fitted effect of over 55% in size; growth read by luminescence after 48 h
# * hit, by the source's call; ? = inconclusive; [ ] = remark or other dose. Potency means the concentration at half of the fitted maximal effect.
SMILES,RE007 growth inh,StopGo reporter,SARS PLP yeast
O=C1NCCOC(=O)[C@H](Cc2ccc(F)cc2)C/C=C\C[C@@H]1CC(=O)N(CCO)Cc1ccccc1,-4.6%,?,-22.8%
Cc1ccc(NC(=O)c2ccc(=O)[nH]n2)cc1S(=O)(=O)Nc1ccc(SC(F)F)cc1,-5.9%,35.2%[activator],2.6%
CC(C)(C)OC(=O)N1CCN(C(=O)c2nc[nH]c2C(=O)N2CCN(C(=O)OC(C)(C)C)CC2)CC1,0.5%,-13.7%,-10.3%
O=C(CSc1nnc(-c2cccc(Br)c2)o1)N1CCNC1=O,28.0%,45.3%[activator],5.2%
CCOc1ccccc1NC(C)C(=O)NC(=O)NC1CCCCC1 (stereo not given),-10.1%,-14.8%,-7.2%
CC1CCN(C(=O)COC(=O)COc2ccccc2C#N)CC1,-1.5%,-17.7%,0.0%
C#CCOCCOCCOCCNc1nc(N2CCN(C(=O)CCCCCCCCCCNC(=O)[C@@H](CCC(=O)O)n3cc(CCCCCN)nn3)CC2)nc(N2CCN(C(=O)CCCCCCCCCCNC(=O)[C@H](CO)n3cc(CCCSC)nn3)CC2)n1,9.1%,19.3%,-5.2%
CCOc1ccc(N2C(=O)CC(Sc3ccccc3C(=O)O)C2=O)c([N+](=O)[O-])c1 (stereo not given),?,-2.9%,-3.9%
COc1ccc(NC(=O)Cn2c(NCC(C)O)nc3ccccc32)cc1Cl (stereo not given),-2.4%,1.1%,0.6%
CC(CNC(=O)Cn1ccc(N)nc1=O)c1ccccc1 (stereo not given),10.1%,?,1.9%
Cc1ccc(C(=O)Nc2ccc3c(c2)OCO3)cc1NC(=O)c1ccco1,16.1%,47.7%[activator],-0.2%
O=C(NCC1CCCO1)c1cn(Cc2ccccc2)nc1-c1ccccc1 (stereo not given),-7.0%,9.5%,-1.8%
Cc1cc(C)n2nc(C(=O)N3CCN(c4ccc([N+](=O)[O-])cc4)CC3)nc2n1,14.3%,0.0%,-0.4%
CCC1=NN2C(=N)/C(=C\c3cccn3-c3c(C)cccc3C)C(=O)N=C2S1,-3.4%,-3.1%,-0.5%
Cc1noc(C)c1S(=O)(=O)Nc1ccc2c(c1)C(=O)N([C@H](C)CO)C[C@H](C)[C@@H](CN(C)S(=O)(=O)c1ccccc1)O2,-1.9%,11.5%,8.2%
O=C(NCCN1CCOCC1)c1ccc2c(c1)N(Cc1ccccc1F)C(=O)c1ccccc1S2,10.3%,-14.4%,0.0%
Cc1nc2ccc(NS(=O)(=O)c3ccc(F)c(F)c3)cc2s1,-7.4%,-22.9%,2.8%[6.58 µM]
O=C1NN=C(c2ccccc2)CC1c1c[nH]c2ccccc12 (stereo not given),-11.3%,6.7%,-1.1%
COc1ccc(C(=O)c2c3ccc(OC)cc3[n+]([O-])n2CCCC(N)=O)cc1,0.2%,22.4%,-9.2%
CCOc1ccc2c(c1)C(N(CCN1CCOCC1)C(=S)Nc1ccccc1OC)CC(C)(C)O2 (stereo not given),-7.2%,88.5%[activator],3.1%
C[C@@]12C(=O)Nc3ccc(Cl)cc3C(=O)N1[C@H]1c3cc(Cl)ccc3OC[C@@H]1[C@@H]2c1ccccc1,23.7%,-21.0%,4.7%
COc1ccc(C(=O)OC(C)C(=O)NC2CCCc3ccccc32)cc1OC (stereo not given),4.8%,-23.8%,2.5%
Cc1cccc(Nc2nc(-c3ccncc3)cs2)c1,-19.4%,4.6%,-11.7%
S=C(NCC1CCCO1)N1CCN(c2cccc(Cl)c2)CC1 (stereo not given),1.8%,1.4%,-1.2%
COc1ccccc1CNC(=O)c1cc(-c2ccccc2)n(Cc2cc(C)no2)n1,6.8%,30.9%[activator],-3.3%
COc1ccc(/C=C/C(=O)OCC(=O)N2CCCCCC2)c(OC)c1,-13.6%,4.3%,0.6%
CCc1noc(C)c1C(=O)OC(C)C(=O)Nc1ccc(Cl)cn1 (stereo not given),0.5%,-7.7%,-9.3%
CCC(=NNC(=O)c1cccc(S(=O)(=O)N2CCOCC2)c1)c1ccccc1,4.3%,10.6%,-1.9%
CC(C)(C)c1ccc(OCC(=O)N2CCN(c3ccccn3)CC2)cc1,-24.7%,-27.3%,-3.4%
CCOC(=O)c1sc(NC(=O)C2CSC3(C)CCC(=O)N23)nc1C (stereo not given),4.7%,1.5%,-1.7%
Nn1c(SCC(=O)Nc2cccc(S(N)(=O)=O)c2)nnc1C1CC1,19.0%,-6.0%,-0.1%
COc1ccc(NC(=O)[C@@H](NC(N)=O)C(C)C)cc1Cl,4.7%,-14.6%,-4.3%
c1ccc2cc(C3CCCCC3)ncc2c1,-0.1%,28.3%,-1.2%
Cc1ccc(OCCNC(=O)c2cccc(S(=O)(=O)N3CCN(C)CC3)c2)cc1,3.2%,9.6%,0.1%
Cc1nc(CNS(=O)(=O)c2cccs2)cs1,26.0%,9.4%,-2.7%
CCSc1ccc([C@@H]2[C@@H]3C(=O)N(CC)C(=O)[C@@H]3[C@]3(C(=O)OC)CCCN23)cc1,5.3%,0.0%,-5.7%
COc1ccc(C(CNC(=O)c2cncc(Br)c2)N(C)C)cc1 (stereo not given),3.2%,-17.5%,0.6%
Cc1ccc(NC(=O)CN(C)C(=O)COC(=O)c2oc3ccccc3c2C)cc1,-2.4%,-8.7%,8.6%
CC(C)(C)OC(=O)N1CCC(NC(=O)c2ncn(Cc3ccccc3)c2C(=O)NC2CCN(C(=O)OC(C)(C)C)CC2)CC1,1.5%,?,-0.2%
COc1ccccc1C(=O)NCCc1c(C)[nH]c2c(C)ccc(F)c12,0.6%,-12.2%,1.1%
COc1ccc2[nH]c3c(c2c1)CCN1C(=O)C(CC(=O)NCCCN(C)C)C[C@H](C(=O)N2CCOCC2)[C@@]31CCC1CCCC1 (stereo not given in full),10.0%,-10.0%,1.7%
O=C(O)CCCNS(=O)(=O)/C=C/c1ccccc1,7.3%,-1.0%,4.3%
CCCCCCNC1=NCCS1,-21.0%,-5.2%,-0.9%
Cc1noc(C)c1COc1ccccc1C(=O)N(C)Cc1ccc(C(C)(C)C)cc1,25.0%,?,-7.8%
O=C(Nc1cccc(S(=O)(=O)N2CCCCC2)c1)c1ccc(Cl)nc1,-6.2%,14.1µM*,6.7%

# An excerpt of these results, with values under each structure:
# Results follow in this order: RE007 growth inh, StopGo reporter, SARS PLP yeast
- S=C(NCC1CCCO1)N1CCN(c2cccc(Cl)c2)CC1 (stereo not given)
→ 1.8%, 1.4%, -1.2%
- COc1ccccc1CNC(=O)c1cc(-c2ccccc2)n(Cc2cc(C)no2)n1
→ 6.8%, 30.9%[activator], -3.3%
- COc1ccc(/C=C/C(=O)OCC(=O)N2CCCCCC2)c(OC)c1
→ -13.6%, 4.3%, 0.6%

# Next section.
SMILES,RE007 growth inh,StopGo reporter,SARS PLP yeast
Nc1ncnc2c1ncn2[C@@H]1O[C@H](CNCC(O)CO)[C@@H](O)[C@H]1O (stereo not given in full),-7.8%,-15.6%,10.1%
CC(C)NC(=O)N(C)C[C@H]1Oc2ccc(NS(=O)(=O)c3cccs3)cc2C(=O)N([C@H](C)CO)C[C@@H]1C,-13.5%,-8.9%,11.9%
O=C(CSc1ccccn1)Nc1ccc2[nH]c(=O)[nH]c2c1,-19.1%,-11.1%,3.2%
CSc1cccc(Nc2ccc(S(=O)(=O)N3CCOCC3)cc2[N+](=O)[O-])c1,11.3%,?,12.6%
CCCCCC(=O)Nc1cccc(S(=O)(=O)NC2=NCCCCC2)c1,2.8%,11.0%,-3.0%
O=C(CN1C(=O)NC2NC(=O)NC21)N/N=C/c1ccc(F)cc1 (stereo not given),16.5%,-2.4%,0.8%
Cc1ccccc1NC(=O)Cc1nc(-c2c[nH]c(C(=O)N3CCCC3)c2)cs1,0.4%,?,6.4%
O=C(C1CC(=O)N(c2ccc3c(c2)OCCO3)C1)N1CCN(Cc2ccccc2)CC1 (stereo not given),-2.5%,-3.5%,1.3%
CCCCN(C(=O)c1ccc(COc2ccccc2)o1)c1c(N)n(CC(C)C)c(=O)[nH]c1=O,1.0%,-13.7%,-1.7%
COc1ccc(N2CCN(C(=O)CCN3C(=O)C4C5C=CC(C5)C4C3=O)CC2)cc1 (stereo not given),-26.5%,0.5%,6.0%
CCC(C)CCN1C(N(C)C)=NC[C@@H]1Cc1ccccc1 (stereo not given in full),3.4%,-20.5%,4.6%
Cc1nc(N/N=C/c2ccc(O)cc2)c2cnn(-c3ccccc3)c2n1,0.0%,0.0%,0.4%
Cc1ccc(Cn2cnc3c(cnn3-c3ccc(F)cc3)c2=O)cc1,-11.0%,-17.0%,3.8%
O=C(OCC(=O)N1CCC(Cc2ccccc2)CC1)c1cncc(Br)c1,0.2%,-13.6%,-6.6%
CCOc1ccc(C(C)NC(=O)CN2C(=O)NC3(CCCCC3)C2=O)cc1OCC (stereo not given),-19.7%,-13.5%,-3.4%
COCc1cccc(C2=CC(=O)C[C@H](c3ccc(F)cc3)C2)c1,13.0%,-30.6%,-4.1%
Cc1ccn2c(NC3CCCC3)c(-c3ccncc3)nc2c1,4.0%,0.0%,2.6%
CN(C(=O)COC(=O)c1cccc(Cl)c1)C1CCS(=O)(=O)C1 (stereo not given),10.2%,-16.8%,0.3%
Cc1ccnc2nc(C(=O)OCC(=O)NCc3cccc(Cl)c3)nn12,19.0%,-19.7%,2.2%
O=C(COC(=O)Cc1ccc([N+](=O)[O-])cc1)NC1CCCCCC1,6.7%,-12.7%,-3.7%
O=C(CSc1nnc2ccccn12)Nc1ccc(N2CCOCC2)cc1,-3.8%,-6.4%,-3.3%
C(#Cc1ccc2c(c1)COc1c3ccccc3nn1-2)c1ccccc1,1.8%,51.1%[activator],3.3%
O=C(O)Cn1cnc2c(OCc3ccccc3)ncnc21,-8.7%,0.0%,0.4%
Cc1ccc(S(=O)(=O)N2CCC(C(=O)OC(C)C(=O)NC3CCCCC3C)CC2)cc1C (stereo not given),4.8%,0.0%,?
CC1CN(c2cc([N+](=O)[O-])ccc2Cl)CC(C)N1 (stereo not given),5.0%,-12.5%,-0.7%
COc1cccc(CC(=O)OCC(=O)c2cc(OC)ccc2OC)c1,5.9%,-15.9%,-0.5%
C=CCN(Cc1ccc(Cl)s1)C(=O)c1cc(S(=O)(=O)N2CCOCC2)ccc1F,-0.6%,-13.8%,-2.0%
CCN(CC(=O)NC1CCS(=O)(=O)C1)C(=O)c1cc(OC)c(OC)c(OC)c1 (stereo not given),5.2%,-3.5%,1.6%
COc1cc(OC)cc(-c2c(-c3cccs3)c3cc(-c4ccc(OC)c(F)c4)ccc3n2C)c1,4.7%,-20.2%,-8.2%
CCC(CO)Oc1cc(NC(=O)c2ccccc2Cl)c2ncn(C(C)C)c2c1 (stereo not given),2.4%,-3.5%,1.7%
C=C[C@H]1C(O[C@@H]2O[C@H](CO)[C@@H](O)[C@H](O)[C@H]2O)OC=C2C(=O)N3CCc4cc(OC)c(O)cc4[C@H]3C[C@H]21 (stereo not given in full),-9.6%,-24.1%,2.0%
Cc1cc(SCC(=O)NCCCN2CCCC2=O)nc2ccccc12,-0.9%,-16.1%,0.6%
O=C1C=C(c2ccc(OC(F)(F)F)cc2)C[C@@H](c2ccc(F)cc2)C1,-12.2%,-16.3%,0.5%
COc1ccc2sc(-c3ccccc3OC)c(C#CCCO)c2c1,0.9%,-12.5%,-0.5%
CC1(C)O[C@@H](CC(=O)O)[C@]23CO[C@H](C(=O)[C@]4(C)C2CC[C@@]2(C)[C@H](c5ccoc5)OC(=O)C5O[C@]524)[C@@H]13 (stereo not given in full),3.9%,-9.6%,16.3%
COc1ccc(N2C(=O)CC(Nc3ccc(C(=O)O)cc3)C2=O)cc1OC (stereo not given),0.5%,0.5%,0.5%
Cc1[nH][nH]c(=O)c1C=NCc1cccnc1,-9.8%,-1.4%,2.3%
O=C(C1COc2ccccc2O1)N1CCN(S(=O)(=O)c2cc(F)ccc2F)CC1 (stereo not given),-1.0%,?,8.7%
c1cncc(CSc2nnc3ccc(-c4ccco4)nn23)c1,-2.5%,40.5%[activator],0.1%
COc1cc(C(=O)NCc2ccc3[nH]c(C)cc3c2)cc(OC)c1OC,-4.6%,8.7%,-1.1%
Cc1ccc(NC(=O)COc2cccc(-n3cnnn3)c2)cc1S(=O)(=O)N1CCOCC1,-0.4%,-47.3%,-0.3%
O=C(COC(=O)CNC(=O)c1ccc(Br)cc1)NCCC1=CCCCC1,-23.1%,-18.7%,0.0%
O=S(=O)(c1cccc(Cl)c1)N1CCSc2ccccc21,21.0%,-21.9%,0.5%
C=CCN1C(=O)C(Cc2cccc(Cl)c2)SC1=Nc1ccc(C(=O)O)cc1 (stereo not given),9.7%,4.8%,-6.8%
COc1cc(NC(=O)Cn2nc(-c3ccc(F)cc3)ccc2=O)ccc1-n1cnnn1,-5.2%,18.8%,3.3%
C=CCN(C(=O)OC(C)(C)C)S(=O)(=O)NCc1ccccc1,-14.0%,59.6%[activator],0.2%
O=S(=O)(NCc1ccc(F)cc1)c1cc(Br)ccc1Br,-11.1%,84.1%[activator],5.7%

# Not all compounds are listed; the hit share may differ from the screen's.
